Compound activity: PubChem, National Center for Advancing Translational Sciences (NCATS)
NS1 function inh – qHTS Assay for Inhibitors of Influenza NS1 Protein Function. S. cerevisiae slowed by influenza A NS1, growth recovery by OD600. 270,000 compounds, 0.4% hits. AID 2326, 2010. Potency, µM (series often up to 46.1 µM), inactives show at the highest dose activity, positive = more growth; active means well fitted rising curve with a large enough effect; inconclusive means small, poorly fitted or top-dose-only effect; inactive means no such curve, though single readings can be large or run the other way; note: nearly all actives have a fitted effect of over 50% in size
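Growth recovery, yeast-based: influenza A NS1 expressed in S. cerevisiae causes slow growth, and suppressors are detected by OD600. The parent strain without NS1 is used as positive control.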
Cruzain Triton – qHTS Assay for Promiscuous and Specific Inhibitors of Cruzain (with detergent); Cruzipain (Trypanosoma cruzi), P25779; purified cruzain, Z-FR-AMC fluorescence, 0.01% Triton; Potency, µM, inactives show max response, negative = inhibition, actives largely listed as inhibitors; 200,000 compounds, 0.43% hits;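 note: plate controls were neutral wells for no effect and buffer without enzyme for full effect; nearly all actives have a fitted effect of over 40% in size; top concentration of the series not given in the record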
Target sequence (P25779 123-467 limits assumed): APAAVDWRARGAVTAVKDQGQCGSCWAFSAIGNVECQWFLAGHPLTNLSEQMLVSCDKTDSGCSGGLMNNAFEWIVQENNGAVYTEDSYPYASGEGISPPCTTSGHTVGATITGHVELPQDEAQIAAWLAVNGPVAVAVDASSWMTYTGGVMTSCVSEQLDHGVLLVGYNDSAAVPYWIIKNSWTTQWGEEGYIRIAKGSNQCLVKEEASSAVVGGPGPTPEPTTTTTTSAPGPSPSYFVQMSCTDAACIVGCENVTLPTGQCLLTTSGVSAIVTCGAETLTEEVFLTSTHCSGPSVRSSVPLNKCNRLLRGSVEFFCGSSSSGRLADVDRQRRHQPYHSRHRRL
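Steps: dispense cruzain (1.5 nM final) in acetate buffer pH 5.5 with DTT and 0.01% Triton X-100; pin-transfer compounds; incubate 15 min RT; add Z-FR-AMC (2 uM final); read fluorescence every 30 s, using the 60 s intensity change.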
RE007 growth inh – qHTS Assay for Inhibitors of the HIV-1 protein Vpr | S. pombe RE007 Vpr strain, BacTiter-Glo ATP luminescence, 24 h; control for the full effect not named in the record | AID 651644, 2012 | 360,000 compounds, 0.21% hits | Potency, µM (top dose mostly 92.2 µM), for inactives: at the highest dose activity change, negative = less growth; active = well fitted falling curve with a large enough effect; inconclusive = small, poorly fitted or top-dose-only effect; inactive = no such curve, though single readings can be large or run the other way;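 note: % is set by controls: 0 for no effect and ±100 for the full control effect; nearly all actives have a fitted effect of over 50% in size; the assay follows cell death caused by Vpr and the record does not say whether a fall means rescue or toxicity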
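Fission yeast RE007 carrying one integrated HIV-1 vpr copy, seeded at OD 0.01 in PMG+AL medium with 23 nL pinned compound. Grown 24 h at 30 degrees; viability read by BacTiter-Glo luminescence after 5 min.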
LASV entry inh – qHTS for Inhibitors of binding or entry into cells for Lassa Virus. 300,000 compounds, 1.2% hits. Potency, µM (top dose mostly 37.9 µM), for the others: at the highest dose activity change, negative = inhibition, hits mostly inhibitors. Lassa virus pseudotype entry inhibition, cell reporter; control for the full effect not named in the record. AID 540256, 2011; active means well fitted inhibition curve with a large enough effect; inconclusive means small, poorly fitted or top-dose-only effect, or effect the other way; inactive means flat fitted curve, though single readings scatter; tested in HEK293 cells; note: % is set by controls: 0 for no effect and ±100 for the full control effect; nearly all actives have a fitted effect of over 50% in size; luciferase read-out
Marburg entry inh – qHTS for inhibitors of binding or entry into cells for Marburg Virus | Marburg virus pseudotyped entry inhibition, cell reporter; control for the full effect not named in the record; about a third of the inactives were read at about 46 µM | Potency, µM (series often up to 37.8 µM), without a hit: at the top dose activity change, negative = inhibition, actives largely listed as inhibitors | AID 540276, 2011 | 300,000 compounds, 1.8% hits; active = well fitted inhibition curve with a large enough effect; inconclusive = small, poorly fitted or top-dose-only effect, or effect the other way; inactive = flat fitted curve, though single readings scatter; tested in HEK293 cells; about a fifth of its hits are not listed in these tables; note: % is set by controls: 0 for no effect and ±100 for the full control effect; luciferase read-out
Cruzain inh noDet – qHTS Assay for Promiscuous and Specific Inhibitors of Cruzain (without detergent) | 200,000 compounds, 2.3% hits | AID 1476, 2009 | Cruzipain (Trypanosoma cruzi), P25779 | purified cruzain, Z-FR-AMC fluorescence, no detergent | Potency, µM, without a hit: max response, negative = inhibition, hits mostly inhibitors;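 note: plate controls were enzyme without inhibitor for no effect and buffer without enzyme for full effect; nearly all actives have a fitted effect of over 40% in size; top concentration of the series not given in the record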
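Purified cruzain at 1.5 nM, pre-incubated 15 min with compound at room temperature in 100 mM sodium acetate pH 5.5, 5 mM DTT, 0.00005% Triton X-100. Reaction started with 2 uM Z-FR-AMC; AMC fluorescence increase over 60 s gives rate.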
SARS PLP yeast – qHTS of Yeast-based Assay for SARS-CoV PLP; 330,000 compounds, 0.19% hits; S. cerevisiae expressing SARS-CoV PLpro, growth rescue; control for the full effect not named in the record; Potency, µM (highest dose often 32.9 µM), without a hit: at the top dose activity, positive = growth rescue; active means well fitted rising curve with a large enough effect; inconclusive means small, poorly fitted or top-dose-only effect; inactive means no such curve, though single readings can be large or run the other way; note: 0% is about no effect; nearly all actives have a fitted effect of over 55% in size; growth read by luminescence after 48 h
2A StopGo – High Throughput Screening for Foot and Mouth Disease Virus Antivirals. human cells with a luciferase reporter of 2A StopGo recoding; control for the full effect not named in the record. Potency, µM (titrated, usually from 57.9 µM), without a hit: top-dose signal change, negative = less light. 410,000 compounds, 1.2% hits. AID 1159524, 2015; active = well fitted falling curve with a large enough effect; inconclusive = small, poorly fitted or top-dose-only effect; inactive = no such curve, though single readings can be large or run the other way; tested in HEK293T cells; note: % is set by controls: 0 for no effect and ±100 for the full control effect; nearly all actives have a fitted effect of over 45% in size; luciferase light after 4 h
An asterisk follows results filed as active; ? = inconclusive; . = no result given; & = joins results of further samples; [ ] = dose if it differs, or a comment. Unless noted, calls come from the whole dose curve; as a rule, active = well fitted curve in the direction sought with a large enough effect; inconclusive = small, poorly fitted or top-dose-only effect, or another doubt; inactive = no such curve, though single readings can be large; an effect the other way counts as inactive or inconclusive. Potency is the fitted concentration of half-maximal effect. Compounds were not picked by outcome; 4.7% or so of the library scored in one or more.

SMILES	Marburg entry inh	LASV entry inh	Cruzain inh noDet	RE007 growth inh	2A StopGo	Cruzain Triton	SARS PLP yeast	NS1 function inh
Cc1ccc(S(=O)(=O)NCC2CCC(C(=O)N(C)Cc3ccccc3)CC2)cc1 (centres undefined)	.	?	-5%	.	-12%	-4.7%	.	.
CC(=O)NC(=S)Nc1ccc(NC(=S)NC(=O)/C=C/c2ccco2)cc1	-25%	?	.	-6%	28%	.	0%	16%
CN(C)/C=N/c1cc(=O)[nH]c(=O)n1Cc1ccccc1	15%	15%	-4%&0%	3%	-5%	-5.4%&-2.9%	3%	3%
COc1c(C)cc(C(=O)C2CCCN(Cc3cnc(C)s3)C2)cc1C (centres undefined)	30%[46.1 µM]	-19%	.	4%	-24%	.	0%	-11%
COc1ccccc1NC(=O)c1cnc2n(c1=O)CCS2	-12%	-4%	2%	-1%	33%[activator]	-6.4%	4%	-17%
C=CCn1c(O)c(C(CC)=NC(C)c2ccccc2)c(=O)[nH]c1=O (centres undefined)	-1%	1%	4%	2%	-2%	1.7%	8%	-6%
O=C(CSc1n[nH]c(-c2ccc(Br)cc2)n1)N1CCOCC1	?	?	.	6%	6%	.	.	.
CCOC(=O)N1CCN(C2CCCN(C(=O)c3ccccc3SC)C2)CC1 (centres undefined)	.	.	.	-2%	8%	.	-5%	8%
COc1ccc(S(=O)(=O)N2CCCC2)c(Cl)c1Cl	?	17%[46.1 µM]	.	64%	-15%	.	1%	.
N#Cc1ccc(CSc2nnc(-c3cccs3)n2-c2ccccc2)cc1	?	?	1%	0%	?	-8.9%	0%	-50%
CC(=O)Nc1nc(C)c(Oc2ccc(Cl)cc2)c(=O)[nH]1	?	19%	.	2%	-6%	.	0%	3%
Cn1c(=O)cc(SCC(=O)N2CCN(c3ccccc3F)CC2)c2ccc(Cl)cc21	-3%[46.1 µM]	11%[46.1 µM]	4%	.	10%	-1.5%	.	.
COc1ccc(C)cc1S(=O)(=O)NC1CCCCC1	15%	0%	2%	1%	101%[activator]	-0.1%	1%	-10%
COCCNC(=O)c1cc2nc(-c3ccc(F)cc3)cc(C(F)(F)F)n2n1	?	-4%	.	-9%	0%	.	0%	-3%
Cc1cc(C)c(NC(=O)C2CCN(c3cnccn3)CC2)c(C)c1	-21%	17%	-17%	48%	-2%	-1.9%	-20%	-1%
CCOC(=O)CSc1nc2ccccc2c(=O)n1CC1CCC(C(=O)NCc2ccco2)CC1 (centres undefined)	-19%&-19%	0%	2%	-5%	-21%	8.1%	1%	2%
Cc1cccc(N2CC(C)Cn3c2nc2c3c(=O)[nH]c(=O)n2C)c1 (centres undefined)	?	-16%[46.1 µM]	.	1%	-7%	.	-1%	2%
CCOC(=O)c1sc(-c2ccc(Cl)cc2)nc1O	0%	9%	.	?	0%	.	-7%	-60%
CC(C)NC(=O)CN1C(=O)C(C)(C)Oc2ccc(C(=O)NC3CCCCC3)cc21	15%[46.1 µM]	17%	.	7%	0%	.	2%	-2%
CCN(c1cccc(C)c1)S(=O)(=O)c1cn(CC(=O)OC)c2ccc([N+](=O)[O-])cc12	.	.	.	5%	-1%	.	3%	6%
COc1cc(/C=C/C(=O)Nc2nnc(CC(C)C)s2)cc(OC)c1OC	4%	4%	?	11%	-6%	-1.8%	7%	?
Cc1cc2oc(C(=O)NCCc3ccc(S(N)(=O)=O)cc3)c(C)c2cc1C	-6%[46.1 µM]	-27%[46.1 µM]	.	5%	-20%	.	1%	.
CCOC(=O)c1cc[n+](CC(=O)c2ccc(F)cc2)cc1	?	16%	5%	-3%	-12%	1.3%	-12%	5%
c1ccc2c(c1)nc1n2CCC1	3%	27%	.	9%	-18%	.	.	.
CC(C)(C)c1cc(NC(=O)c2c(F)cccc2Cl)n(-c2ccccc2)n1	-4%[46.1 µM]	.	.	-3%	-4%	.	-2%	2%
Cc1cc(OCc2ccc(C(=O)NN=C3CCCC3)cc2)ccc1Cl	?	18%	?	?	15%	-6.1%	-54%	14µM*
Cc1ccc(Cl)cc1NC(=O)C1CCN(S(C)(=O)=O)CC1	13%[46.1 µM]	-5%	.	-9%	-4%	.	1%	3%
COc1ccc(N/C(=N\c2nc(C)cc(C)n2)NC(C)=O)cc1OC	7%[46.1 µM]	8%	8%	-7%	-24%	3.8%	1%	-11%
Cc1c(Cl)cccc1NC(=O)Cn1c(=O)n(Cc2ccco2)c(=O)c2oc3ccccc3c21	.	3%[46.1 µM]	8%	.	?	-0.7%	.	.
CC(C)c1ccc(C2CC(=O)N3CN(C4CCCCC4)CSC3=C2C#N)cc1 (centres undefined)	7%[46.1 µM]	12%[46.1 µM]	?	.	-4%	?	.	.
COc1cccc2[nH]c(C(=O)NCC3CCCO3)cc12 (centres undefined)	.	.	.	-1%	13%	.	-1%	-2%
CC(=O)Nc1c(Cl)cc2c(c1Cl)Cc1ccccc1-2	?	6%	.	-13%	24%	.	.	.
O=C(COc1ccccc1)NC1CC(=O)N(c2ccc3c(c2)OCCO3)C1 (centres undefined)	.	12%[46.1 µM]	-11%	.	11%	-2.3%	.	.
CCOC(=O)c1c(C)c(-c2ccccc2)n(CC(=O)NCCc2cccc(C)c2)c1C	?	.	3%	.	-10%	-0.3%	.	.
COC(=O)c1ccc(SCC(=O)N2CCC(C)CC2)c([N+](=O)[O-])c1	16%	4%	?	-2%	6%	-4.8%	3%	2%
CC(C)C(NC(=O)c1ccccc1)C(=O)N/N=C\c1ccco1 (centres undefined)	2%	5%	13%	-8%	-5%	-1.7%	-6%	12%
Cc1ccc(-n2c(N)c(C(=O)N3CCOCC3)sc2=S)cc1	4%	13%	-7%	8%	3%	5.6%	3%	-2%
O=C(/C=C/c1ccccc1)OCCCCN=C1NS(=O)(=O)c2ccccc21	2%[46.1 µM]	-15%	.	7%	?	.	0%	4%
CNS(=O)(=O)c1cccc(C(=O)OCC(=O)C23CC4CC(CC(C4)C2)C3)c1	-14%	?	-1%	6%	-1%	0.1%	-13%	-16%
O=C(CSc1n[nH]c(-c2ccccc2O)n1)N1CCOCC1	-18%[46.1 µM]	?	.	11%	48%[activator]	.	-3%	.
CCOc1cc(C2C(C(=O)c3ccccc3)=C(C(=O)OC)Nc3nnnn32)ccc1O (centres undefined)	-2%&-2%	-25%	-30%	0%	-1%	0.2%	3%	5%
COc1ccc(CCNC(=O)COC(=O)C2CC2)cc1OC	9%	-1%	.	-11%	-11%	.	2%	.
CC1=C(C(=O)OCCBr)C(c2cccc3ccccc23)NC(=O)N1 (centres undefined)	-11%[46.1 µM]	-6%	.	-2%	-13%	.	0%	4%
COc1cccc(N2CC(C(=O)Nc3nnc(SCC(=O)NC4CCCC4)s3)CC2=O)c1 (centres undefined)	2%	10%	.	-9%	-2%	.	2%	9%
CCOC(=O)c1c(CSc2ccccc2)n(C)c2cc(Br)c(O)c(CN(C)C)c12	?	?	.	2%	-26%	.	0%	3%
O=[N+]([O-])c1ccccc1NCCNS(=O)(=O)c1ccc(Cl)cc1	4%	0%	-22%	2%	3%	-2.3%	-5%	-21%
CN(C)C(=O)C1Cc2ccccc2CN1S(=O)(=O)c1ccc(F)cc1 (centres undefined)	.	.	.	-1%	11%	.	1%	-43%
Nn1c(SCc2ccccc2F)nnc1-c1cccnc1	.	.	.	0%	74%[activator]	.	2%	2%
COc1cccc(/C=C2\CCC(C3CCCC3)C2=O)c1 (centres undefined)	39%	10%	.	0%	29%	.	-1%	-11%
COc1cc(C=C2C(=O)OC(C)(C)OC2=O)cc(Cl)c1OCC(=O)Nc1ccccc1	-2%	-2%	.	5%	-14%	.	-2%	-1%
CN(C)c1ccc(/C=N/N2C(=S)SC(C)(C)C2N(O)C(=O)Nc2ccc([N+](=O)[O-])cc2)cc1 (centres undefined)	15%[46.1 µM]	2%	?	9%	2%	-5.2%	7%	-10%
O=S1(=O)c2ccccc2C(CCO)N1Cc1ccccc1 (centres undefined)	.	.	.	9%	-8%	.	1%	5%
Nc1nnc(SCC(=O)Nc2cc(C(F)(F)F)ccc2N2CCOCC2)s1	-5%	-10%	-8%	3%	-6%	1.2%	-12%	?
CCn1c(SCC(=O)Nc2ccc3c(c2)OCCO3)nnc1-c1c[nH]c2ccccc12	.	.	.	16%	-4%	.	-1%	-23%
CC1CCCC(NC(=O)CNC(=O)c2cccs2)C1C (centres undefined)	2%[46.1 µM]	14%	.	2%	11%	.	-11%	.
Cc1cccc(N2CCN(C(=O)CCCn3ncn4c(cc5occc54)c3=O)CC2)c1C	6%[46.1 µM]	-24%[46.1 µM]	?	.	?	-8.1%	.	.
COc1cc(Br)cc(C(c2c(C)n(C)n(-c3ccccc3)c2=O)c2c(C)n(C)n(-c3ccccc3)c2=O)c1O	21%[14.2 µM]	-11%	.	-23%	-4%	.	.	.
